Screens as filed in PubChem.
VDR inh: vitamin D3 receptor (human) inhibition | VDR-SRC2-3 peptide fluorescence polarization, 2 h | 400,000 compounds, 0.93% hits | Potency, µM, for the others: max response, negative = inhibition, actives largely listed as inhibitors; active = well fitted inhibition curve with a large enough effect; inconclusive = small, poorly fitted or top-dose-only effect, or another doubt; inactive = no such curve, though single readings can be large or run the other way; note: series mostly up to about 120 µM
Target sequence (P11473 whole entry, looked up): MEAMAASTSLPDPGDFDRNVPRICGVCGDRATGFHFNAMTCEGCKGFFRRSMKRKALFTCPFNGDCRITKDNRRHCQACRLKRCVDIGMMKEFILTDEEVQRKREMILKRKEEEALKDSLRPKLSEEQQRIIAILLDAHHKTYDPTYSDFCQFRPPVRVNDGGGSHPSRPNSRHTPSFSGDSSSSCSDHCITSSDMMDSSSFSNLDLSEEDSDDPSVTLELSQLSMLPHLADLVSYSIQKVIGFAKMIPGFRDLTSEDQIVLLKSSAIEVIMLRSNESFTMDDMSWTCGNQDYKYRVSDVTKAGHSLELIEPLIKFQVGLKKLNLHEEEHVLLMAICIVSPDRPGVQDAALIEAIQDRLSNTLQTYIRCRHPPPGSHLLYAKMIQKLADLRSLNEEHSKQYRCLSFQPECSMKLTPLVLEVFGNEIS
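Measured by FP: displacement of SRC2-3 coactivator peptide from VDR by library compounds, following a two-hour ambient incubation.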
An asterisk follows results filed as active; ? = inconclusive. % is set by controls: 0 for no effect and ±100 for the full control effect; potency is the fitted concentration of half-maximal effect. An excerpt; count on the stated rates, not on these rows.

SMILES	VDR inh
COc1ccc(C(=O)NCC(c2cccnc2)N2CCN(c3ccccc3F)CC2)cc1OC (centres undefined)	8%
COc1ccc(C2(C(=O)N3CCOCC3)CCOCC2)cc1OC	7%
CC(C)c1nnc(NC(=O)c2ccc(N3C(=O)CCC3=O)cc2)s1	-1%
Cn1c(NC(=O)c2cccnc2)nc2ccccc21	-9%
COc1ccc(NC(=O)CSC2=Nc3ccccc3C3=NC(Cc4ccccc4)C(=O)N23)cc1 (centres undefined)	-4%
COc1cccc(C2CC(c3ccccc3Cl)n3nnnc3N2)c1 (centres undefined)	12%
Cc1ccc(C(=O)COc2nc(C)cc(C)c2C#N)cc1	-7%
Cc1ccc(NC(=O)CSc2nnc(C)n2-c2ccccc2)cc1	-21%
CC(=O)Nc1cccc(NC(=O)c2ccc3c(c2)CCN3S(=O)(=O)c2ccccc2)c1	-5%
CCOC(=O)C1=C(C)N=c2s/c(=C\c3cccc(OCC(=O)O)c3)c(=O)n2C1c1ccccc1OC (centres undefined)	?
Cn1cnnc1-c1cccc(NS(=O)(=O)c2ccc(N3CCCC3=O)cc2)c1	8%
Cc1cc(/C(N)=N/OC(=O)Nc2cccc(C(F)(F)F)c2)no1	18%
COc1ccc(CN2CCSCC2)c(OC)c1C	-2%
CCc1ccc(/C=N/NC(=O)c2cc(-c3ccccc3OC)nc3ccccc23)s1	4%
O=C(Cc1ccc(Cl)cc1)NCC(c1cccs1)S(=O)(=O)c1ccccc1 (centres undefined)	13%
CCOC(=O)N1CCN(C(=O)CNC(=O)Cc2ccc(Cl)cc2)CC1	6%
COC(=O)c1ccc(CN2CCN(CC(C)C)C(CCO)C2)cc1 (centres undefined)	-13%
COc1ccc(Cn2c(C(=O)O)c(CNC3CCCC3)c3ccc(C)cc32)cc1	11%
COc1ccc(C(C#N)Nc2ccccc2C)cc1 (centres undefined)	-7%
Cc1cccc(C(=O)OCC(=O)NC(=O)NCc2ccccc2)c1	0%
CCOC(=O)CCn1c(=S)n(CCC(=O)OCC)c2ccccc21	-28%
Cc1ccccc1C(=O)Nc1cccc(C(=O)OCc2cc(=O)n3nc(C4CC4)sc3n2)c1	11%
CCOC(=O)c1sc2ncn(CC(=O)N(CC)CC)c(=O)c2c1C	10%
O=C(NCCS(=O)(=O)N1CCN(c2cccc(Cl)c2)CC1)c1ccco1	-9%
C/C(CCc1oc2c(Br)cc(Br)cc2c1-c1ccc(C)o1)=N\O	-12%
Cc1cc(OCC(=O)Nc2ccccn2)c2c(C)cc(=O)oc2c1	3%
O=S(=O)(c1ccc(Cl)cc1)N1CCC(c2nc3ccccc3[nH]2)CC1	-1%
Cn1nc(C(=O)NCCc2ccc(Cl)cc2)c2c1-c1ccccc1SC2	4%
CCNC(=O)CNC(=O)c1nn(Cc2ccccc2)c(=O)c2ccccc12	-15%
O=C(CN(c1ccccc1Cl)S(=O)(=O)c1ccccc1)N/N=C/c1ccccc1C(=O)O	-12%
COc1cc(/C=N/Nc2nc3ccccc3o2)cc(OC)c1O	16%
CCOC(=O)C1CCN(c2c(N3CCCCCC3)c(=O)c2=O)CC1	0%
Cc1cccc(-c2nnc(SCCC(=O)O)o2)c1	-2%
O=C(O)C1CCCCC1C(=O)NCCCn1ccnc1 (centres undefined)	9%
CC(C)CCN(C(=O)c1csnn1)C(C(=O)NC1CCCC1)c1ccc(F)cc1 (centres undefined)	2%
CC(C)NC(=O)Cn1nnc(-c2cccc(NC(=O)c3ccccc3F)c2)n1	-5%
Cc1ccc(OCC(=O)NNC(=O)C2CSC3(C)CCC(=O)N23)cc1 (centres undefined)	-1%
O=C(COC(=O)c1n[nH]c2ccccc12)Nc1ccccc1F	4%
O=C1c2cccc3c(N4CCOCC4)c([N+](=O)[O-])cc(c23)C(=O)N1c1cccc2ccccc12	8%
CC(=O)Nc1ccccc1-c1nc2ccc(C(=O)N3CCN(c4cc(C)ccc4C)CC3)cc2[nH]c1=O	-6%
CCc1ccc(CCC(=O)Nc2ccc(Br)cc2)o1	-10%
CCOc1cccc(N2C(=O)CC(N3CCC(C(N)=O)(N4CCCCC4)CC3)C2=O)c1 (centres undefined)	-12%
CC12CN3CC(C)(CN(C1)C3c1ccc3c(c1)OCO3)C2 (centres undefined)	1%
O=c1cc(-c2ccccc2Cl)oc2c(NS(=O)(=O)c3cccs3)ccc(O)c12	3%
O=C(NCCCN1CCN(c2cccc(Cl)c2)CC1)c1nc(-c2ccncc2)no1	16%
O=C(CNC(=O)[C@@H]1Cc2ccccc2CN1)NC1CCCC1	1%
Cc1ccc(-c2nnc(N3CCOCC3)c3ccccc23)cc1S(=O)(=O)N(C)C	-7%
[O-]/[N+](=C\c1ccccc1)c1ccccc1	-15%
COCCCn1c(=N)c(C(=O)NC2CCCCC2)cc2c(=O)n3cc(C)ccc3nc21	2%
CC(C)c1ccc(NC(=O)C(=O)C2C(=O)Nc3ccccc32)cc1 (centres undefined)	-2%
O=C(Cn1cnc([N+](=O)[O-])n1)N/N=C/c1ccc2ccccc2c1	-19%
CCCOc1ccc(CC(=O)NNC(=S)Nc2ccccc2)cc1Br	8%
CC(C)(C)NC(=O)c1ccccc1-c1nc(-c2ccccc2Cl)no1	17%
COC(=O)Cn1c(=O)c2c(nc(Br)n2Cc2ccccc2Cl)n(C)c1=O	11%
COc1ccc(C2c3ccsc3CCN2C(=O)NC(C)(C)C)cc1 (centres undefined)	-9%
CCCNC(=O)c1ccc2c(=O)n3c(-c4ccc(C)cc4)csc3nc2c1	-2%
Cn1cccc1CC(=O)N/N=C/c1ccc([N+](=O)[O-])cc1	-4%
CC1(C)CC(=O)C(C2C3=C(CC(C)(C)CC3=O)Oc3ccccc32)C(=O)C1 (centres undefined)	-6%
Nc1cc(OC(=O)c2c(F)cccc2Cl)nn1S(=O)(=O)c1ccccc1	-19%
CCOC(=O)C1=C(C(=O)OCC)C(C(=O)OCC)N(S(=O)(=O)C(F)(F)F)c2ccccc21 (centres undefined)	-6%

Next part.
SMILES	VDR inh
CC(=O)n1c2c(c3ccccc31)OC(N)=C(C#N)C2c1ccc(C(C)C)cc1 (centres undefined)	-8%
Cc1cc(/C(=N/O)C(C)(C)NO)ccc1Cl	-12%
Fc1ccc(/C=N/NC(=S)Nc2ccc(Cl)cc2)cc1F	-10%
Cc1nc(-c2ccc(NC(=O)c3cccs3)cc2)cs1	8%
Cc1ccc(S(=O)(=O)N(C)C)cc1NC(=O)C(C)NC(C)c1cccs1 (centres undefined)	13%
O=C(CN(c1ccc(F)cc1)S(=O)(=O)c1ccc2c(c1)OCCO2)N1CCOCC1	-19%
CN(C(=O)c1nn(C)c2c1COc1ccccc1-2)c1cccc(C(F)(F)F)c1	-2%
O=C(COC(=O)Cc1c[nH]c2ccccc12)Nc1ccccc1	-14%
COc1ccc(NCc2nnc(SCc3ccc(Cl)cc3)n2-c2ccccc2)cc1	-27%
Cc1ccc(C(=O)NCC(=O)N2CCc3ccccc3C2)cc1C	7%
CNc1c(N)c(=O)oc2ccccc12	-18%
CCN1C(=O)S/C(=C/c2ccc(Sc3nc4ccccc4[nH]3)o2)C1=O	-14%
COCCN(C(=O)c1ccccc1OC)c1nnc(C)s1	6%
CCc1ccccc1N1CCN(S(=O)(=O)c2ccc(F)c(C)c2)CC1	0%
CC1CCN(C(=O)COC(=O)C23CC4CC(CC(O)(C4)C2)C3)CC1	16%
COc1ccc(C(=O)Nc2ccccc2C(=O)N/N=C/c2ccncc2)cc1OC	12%
COc1cc(OC)cc(C(=O)NC(C(=O)Nc2ccc3c(c2)CCC3)C(C)C)c1 (centres undefined)	-22%
COc1ccc(C)cc1-n1nnnc1SCC1CCCO1 (centres undefined)	-23%
Cc1ccc(NC(=O)CSc2n[nH]c(N)n2)cc1S(=O)(=O)N1CCOCC1	10%
O=C(NCCc1ccc(Cl)cc1Cl)c1cc([N+](=O)[O-])c[nH]c1=O	-2%
Cc1ccc(S(=O)(=O)NNC(=O)Nc2ccc(Cl)cc2)cc1	7%
COc1ccc(C(CNC(=O)C(CCSC)NC(=O)c2ccccc2OC)N2CCCCC2)cc1 (centres undefined)	17%
Cc1onc(-c2ccccc2)c1C(=O)NNC(=S)NC(=O)/C=C/c1cccs1	-21%
Cc1ccccc1C(=O)Nc1nnc(S(=O)(=O)N(C)Cc2ccc(Cl)cc2)s1	2%
CC1CCN(S(=O)(=O)N2CCC(C(=O)NCc3ccc4c(c3)OCO4)CC2)CC1	-22%
O=C(Nc1cnc2ccccn2c1=O)c1ccc(Cl)cc1Cl	16%
O=C(COC(=O)c1ccc2c(c1)OCO2)NC1CCCCC1	-6%
Cc1cc(C)c2c(c1)c(C)cc1nnc(SCC(=O)c3ccccc3)n12	10%
O=C(O)CCc1ccc(-c2cccs2)n1CC1CCCO1 (centres undefined)	-17%
CCCCOc1ccc(C(=O)OC2CC(C)N(C)CC2C)cc1 (centres undefined)	-12%
COc1ccc(OC)c(CNC(=O)C2CCN(S(=O)(=O)N3CCC(C)CC3)CC2)c1	-5%
COc1cccc2cc(-c3cn4cccc(C)c4n3)c(=O)oc12	-22%
FC(F)(F)c1cccc(-c2noc(-c3cc(-c4ccccc4)c(C(F)(F)F)s3)n2)c1	-3%
CC1(c2ccccc2)NC(=O)N(CC(=O)Nc2ccccc2N2CCCC2)C1=O (centres undefined)	3%
CCOC(=O)N1CCN(CC(=O)N2c3ccccc3Sc3ccccc32)CC1	-4%
Cc1ccc(-n2c(C)cc(C(=O)COC(=O)c3c(C)noc3C)c2C)cc1	-8%
CC(=O)N1c2ccc(S(=O)(=O)N(C)CC(=O)NC3CCCCC3C)cc2CC1C (centres undefined)	2%
CC1CN(CC(=O)NCc2ccc(F)cc2)CC(C)O1 (centres undefined)	2%
CN(Cc1ccccc1)c1cc(Cl)nc(N)n1	8%
O=C(C1CCC(Cn2c(=O)c3sccc3n(Cc3ccccc3)c2=O)CC1)N1CCCCC1 (centres undefined)	2%
O=C(Nc1ccncc1)c1cccc2ccccc12	7%
Cc1cc(O)c(C(c2ccccc2)N2CCN(C)CC2)c(=O)n1Cc1ccco1 (centres undefined)	14%
CC(=O)N1CCc2cc(S(=O)(=O)NC(C(=O)N3CCN(c4ccccc4F)CC3)C(C)C)ccc21 (centres undefined)	-22%
CCOC(=O)c1ccc(CN(Cc2ccc(F)cc2)S(=O)(=O)c2ccc(F)c(C(=O)Nc3ccccc3C(F)(F)F)c2)cc1	5%
CCCC(=O)Nc1cc(OC)c(OC)cc1C(=O)O	-2%
COC1=CC(=O)C(C(=O)c2ccccc2)=CC1=O	32µM*
CC1(C)Cc2nc(NCCCO)c(C#N)cc2CO1	13%
CSc1snc(SCC(N)=O)c1C#N	3%
COc1ccc(C(=O)Nc2ccc3c(c2)C(=O)N(C)C3=O)cc1OC	1%
COc1ccc(CN(C)C(=O)C2CSC3(C)CCC(=O)N23)cc1 (centres undefined)	15%
O=c1c2ccccc2n(CC(O)CN2CCCCC2)c2ccccc12 (centres undefined)	-1%
CCOc1ccc(CN(C)C(=O)c2ccc(=O)[nH]c2)cc1	-8%
COc1ccc(NC(=O)c2cc(C(C)=O)n3ccccc23)cc1Cl	11%
Cc1ccc(OCCCCCN2CCOCC2)cc1	-18%
COC(=O)c1ccc(S(=O)(=O)N2CCCN(Cc3ccccc3)CC2)n1C	-9%
Cc1ccc(N2CCN(S(=O)(=O)c3ccc(F)c(C)c3)CC2)c(C)c1	1%
COc1ccc(S(=O)(=O)N2CCCCCC2)cc1C(=O)N1CCN(c2ccccc2C)CC1	8%
CNC(=O)c1sc(N2N=C3/C(=C/c4ccccc4)CCCC3C2c2ccccc2)nc1C (centres undefined)	-6%
CC(NC(=O)CN1C(=O)NC2(CCCC2)C1=O)c1ccc2ccccc2c1 (centres undefined)	9%
O=C(CN(C(=O)c1csnn1)c1cccc(C(F)(F)F)c1)NCCc1ccccc1	5%

As entered above:
COc1ccc(S(=O)(=O)N2CCCCCC2)cc1C(=O)N1CCN(c2ccccc2C)CC1 – VDR inh: 8%
COc1ccc(NC(=O)c2cc(C(C)=O)n3ccccc23)cc1Cl – VDR inh: 11%

New compounds follow.
SMILES	VDR inh
COc1ccc(-c2noc(C3CCCN(C(=O)c4c(F)cccc4F)C3)n2)cc1OC (centres undefined)	-8%
CCCCCC(=O)NC(=S)Nc1cccc(-c2nc3ncccc3o2)c1	-12%
Cc1cc(C=O)c(C)n1-c1sc2c(c1C(=O)O)CCCC2	-18%
CC(=O)c1nn(-c2ccc(Cl)cc2)cc1C(=O)c1ccccc1	-7%
Cc1onc(-c2c(Cl)cccc2Cl)c1C(=O)N1CCc2ccccc21	10%
NC(=O)C1(c2ccccc2)CCC(=O)N1c1ccccc1 (centres undefined)	0%
COc1ccc(-c2oc(/N=C/N3CCCC3)c(C#N)c2-c2ccc(OC)cc2)cc1	22%

Arranged by molar mass (low to high): some entries from above.
SMILES	VDR inh
CSc1snc(SCC(N)=O)c1C#N	3%
Cc1ccc(OCCCCCN2CCOCC2)cc1	-18%
NC(=O)C1(c2ccccc2)CCC(=O)N1c1ccccc1 (centres undefined)	0%
Cc1cc(C=O)c(C)n1-c1sc2c(c1C(=O)O)CCCC2	-18%
CC(=O)c1nn(-c2ccc(Cl)cc2)cc1C(=O)c1ccccc1	-7%
COc1ccc(CN(C)C(=O)C2CSC3(C)CCC(=O)N23)cc1 (centres undefined)	15%
COc1ccc(C(=O)Nc2ccc3c(c2)C(=O)N(C)C3=O)cc1OC	1%
COc1ccc(NC(=O)c2cc(C(C)=O)n3ccccc23)cc1Cl	11%
Cc1ccc(N2CCN(S(=O)(=O)c3ccc(F)c(C)c3)CC2)c(C)c1	1%
CCCCCC(=O)NC(=S)Nc1cccc(-c2nc3ncccc3o2)c1	-12%
Cc1onc(-c2c(Cl)cccc2Cl)c1C(=O)N1CCc2ccccc21	10%
COC(=O)c1ccc(S(=O)(=O)N2CCCN(Cc3ccccc3)CC2)n1C	-9%
COc1ccc(-c2oc(/N=C/N3CCCC3)c(C#N)c2-c2ccc(OC)cc2)cc1	22%
COc1ccc(-c2noc(C3CCCN(C(=O)c4c(F)cccc4F)C3)n2)cc1OC (centres undefined)	-8%
O=C(CN(C(=O)c1csnn1)c1cccc(C(F)(F)F)c1)NCCc1ccccc1	5%
CNC(=O)c1sc(N2N=C3/C(=C/c4ccccc4)CCCC3C2c2ccccc2)nc1C (centres undefined)	-6%
COc1ccc(S(=O)(=O)N2CCCCCC2)cc1C(=O)N1CCN(c2ccccc2C)CC1	8%
